# Sa RN4220 lethal = S. aureus RN4220 growth inhibition; OD600, 16 h; inhibition, % (concentration not given with the values); 0.33% of 330,000 active; AID 1259311;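 active = z-score of -3 or lower and OD600 up to 0.18 on both plates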;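 also: plate controls were untreated cells for no effect and reference antibiotic for full effect; stock transfer was 100 nL into about 80 µL; one replicate is shown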
# BJeLR viability = kills HRASV12-expressing BJeLR cells | BJeLR (HRASV12) viability, CellTiter-Glo ATP luminescence, 48 h; reference of the scale not given here | inhibition, % (test concentration not listed) | 0.17% of 300,000 active | AID 1554;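 active = replicate mean above 50%; inconclusive = above 50% but judged a plate artefact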;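 also: 50 nL library stock added to about 25 µL; numbers are from one replicate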
# Bead autofluor = counter-screen for toxin protease inhibitors: compound fluorescence. compound autofluorescence counterscreen, microsphere flow cytometry; hits give high values. fluorescence intensity (no concentration beside the values). 3.1% of 360,000 active;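 active = at least 3 SD above the mean of all compounds, about 16000 in these data; inconclusive = too few beads counted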;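 also: 100 nL of 1 mM stock went into each well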
# Mtb hypoxia inh = inhibitors of hypoxia-regulated fluorescent reporter in Mycobacterium tuberculosis. 0.1% of 300,000 active. fluorescence inhibition, % (no concentration beside the values). M. tuberculosis hypoxia-regulated fluorescent reporter, fluorescence. AID 1159583;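 active = 35 to 45% if threefold the growth effect, above 45% if 1.5-fold the growth effect; inactive = the rest, general growth blockers included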;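 also: wells of about 50 µL received 100 nL stock; 0% = vehicle wells and 100% = reference inhibitor wells; whole bacteria with a GFP reporter of the hypoxia response; strong numbers were not always called active; many hits fall short of the cut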
# ugtP null kill = growth inhibition of S. aureus ugtP deletion strain | 0.54% of 330,000 active | S. aureus RN4220 ugtP deletion, OD600 growth, 16 h; some inactives read as strong as hits | growth inhibition, % (test concentration not listed);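 active = z-score under -3 and OD600 up to 0.15 on both plates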;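 also: plate controls were untreated wells for no effect and antibiotic for full effect; wells of about 80 µL received 100 nL stock; the first replicate is given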
# PrP 5UTR inh = suppresses PrP 5' UTR mRNA reporter expression; cell-based PrP 5' UTR mRNA reporter, plate reader; inhibition, % (test concentration not listed); 0.35% of 340,000 active;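 active = every replicate at 50% or more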;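 also: 0 = median of the neutral control wells; tested in H4 reporter cells; numbers are from one replicate; inactives centre near -14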
# Mtb hypoxia inh growth = further read-out of Mtb hypoxia inh, marked with its call; growth inhibition, %; measured here: M. tuberculosis growth (absorbance);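 0% = vehicle and 100% = reference antibiotic; read after six days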
# * = called active by the depositor; u = inconclusive; x = not tested or not shown; & = joins results of further samples.
SMILES,Sa RN4220 lethal,BJeLR viability,Bead autofluor,Mtb hypoxia inh,Mtb hypoxia inh growth,ugtP null kill,PrP 5UTR inh
Nc1nonc1OCCN1CCN(c2ccc([N+](=O)[O-])c3cccnc23)CC1,1.1,10,5883,8,8,7,-23
CSCCCN1CCC(n2nccc2NC(=O)CCCc2ccccc2)CC1,-1.1,-7,5020,-4,2,-3,-23
CCCNC(=O)NC(=O)CSc1nc2cc(C(=O)OC)ccc2c(=O)n1-c1ccccc1,-3.7,11,4426,x,x,5,-16
COc1ccc(CCN2CCCC(CN(C)Cc3cc(OC)c(OC)c(OC)c3)C2)cc1 (stereo unspecified),3.8,5,3844,8,21,13,-9
COc1ccc(N2CCN(C(=O)c3ccc(NS(=O)(=O)c4cccc(F)c4)cc3)CC2)cc1,-2.1,1,10735,7,10,19,2
Cc1ccc(C)c(NS(=O)(=O)c2cc3c4c(c2)CC(=O)N4CCC3)c1,7.1,0,4710,14,7,0,-19
CC1=CC(=O)N(c2cccc3c(N4C(=O)C=C(C)C4=O)cccc23)C1=O,6.0,x,2764,8,6,-2,-17
O=C(CCCn1c(=O)[nH]c2ccsc2c1=O)N1CCN(Cc2ccc3c(c2)OCO3)CC1,1.2,3,8737,8,6,0,-7
O=C(Nc1cc(=O)[nH]c2ncnn12)c1ccco1,2.6,2,3899,7,6,9,-31
COc1ccc(N(CC(=O)NC2CCCCC2)C(=O)c2ccc(C)s2)cc1OC,-2.8,-7,4652,-2,-5,2,-3
Cc1cccc(NC(=O)CC2NCCNC2=O)c1 (stereo unspecified),1.1,-7,4089,x,x,7,-14
CC(C)(C)NC(=O)C(=O)NCCC1=CCCCC1,6.2,10,2484,12,6,10,-22
O=C(c1ccc(Cl)s1)N1CCN(C23CC4CC(CC(C4)C2)C3)CC1,4.8,-5,4517,7,4,12,-2
CCc1ccc(/C=C\C(=O)N2CCCC2)cc1,5.1,7,6181,x,x,-3,-97
CC(C)(CNC(=O)c1cccs1)N1CCOCC1,5.2,x,4765,5,-1,11,-21
CC(C)(C)NC(=O)C1CCN(c2ccc(S(=O)(=O)N3CCOCC3)cc2Cl)CC1,1.1,-8,3282,13,2,5,9
CSc1ccccc1NC(=O)c1noc(C)c1[N+](=O)[O-],-0.4,-2,5643,-6,-7,-2,-11
CC(C)OC(=O)c1cn(-c2ccccc2)nc1-c1ccc2c(c1)OCCO2,1.1,6,5160,7,10,-12,-20
CCOC(=O)c1cccc(NC(=O)C2CCCO2)c1 (stereo unspecified),-1.1,-7,4590,x,x,7,-16
O=[N+]([O-])c1ccc(O)c(P(=O)(c2ccccc2)c2ccccc2)c1,20,-9,3418,4,-9,9,-1
COc1ccc(NS(=O)(=O)c2ccc(NC(=S)NC(=O)/C=C/c3ccccc3)cc2)nn1,9.2,3,8881,6,1,45,-9
CCC(=O)Nc1sc(C(=O)Nc2ccccc2OC)c(C)c1C(=O)OC,-0.7,5,2514,-2,-3,7,-25
Cc1cccc(C)c1N1C(=O)CCC(C)(C)C1=O,2.1,-3,3423,3,5,5,-14
Cc1nnc(SCC(=O)N2CCCc3ccccc32)[nH]c1=O,5.3,1,16177*,11,1,11,-24
CCN1C(=O)/C(=C\c2ccc3c(c2)OCO3)C(C(=O)OC)=C1C,5.7,-6,7485,6,10,6,-20
N#Cc1ccc(CSc2nnc(-c3ccncc3)n2CCc2ccccc2)cc1,3.8,2,8876,4,6,0,-22
CC(C)(C)NS(=O)(=O)c1ccc(NS(=O)(=O)Cc2ccccc2)cc1,4.0,9,11544,3,9,-9,-4
CC(=O)Nc1ccccc1C(=O)C(=O)NCCc1ccccc1,4.2,-4,4405,1,8,4,-23
O=C(NCCCN1CCOCC1)c1cn(-c2ccccc2)nc1-c1ccc(F)cc1,1.3,x,3722,9,5,0,-14
Cc1cc(NC(=O)NC(=O)c2cccc(OC(F)(F)C(F)F)c2)n[nH]1,1.5,-13,4184,x,x,4,-64

# 4 entries from above, set out differently.
# Each structure is followed by: Sa RN4220 lethal, BJeLR viability, Bead autofluor, Mtb hypoxia inh, Mtb hypoxia inh growth, ugtP null kill, PrP 5UTR inh
> CCCNC(=O)NC(=O)CSc1nc2cc(C(=O)OC)ccc2c(=O)n1-c1ccccc1
    -3.7, 11, 4426, x, x, 5, -16
> CCN1C(=O)/C(=C\c2ccc3c(c2)OCO3)C(C(=O)OC)=C1C
    5.7, -6, 7485, 6, 10, 6, -20
> COc1ccc(NS(=O)(=O)c2ccc(NC(=S)NC(=O)/C=C/c3ccccc3)cc2)nn1
    9.2, 3, 8881, 6, 1, 45, -9
> CC(C)(C)NS(=O)(=O)c1ccc(NS(=O)(=O)Cc2ccccc2)cc1
    4.0, 9, 11544, 3, 9, -9, -4

# More structures.
SMILES,Sa RN4220 lethal,BJeLR viability,Bead autofluor,Mtb hypoxia inh,Mtb hypoxia inh growth,ugtP null kill,PrP 5UTR inh
CC(=NNC(=O)C1CC1)c1ccc(OC(F)F)cc1OC(F)F,-0.8,x,x,15,9,5,x
CCOC(=O)c1ccc(NC(=S)NNC(=O)c2cc(-c3cccnc3)nc3ccccc23)cc1,4.2,-6,5072,-7,-3,-1,-13
Cc1ccc(-c2noc(-c3cc(C(C)(C)C)nn3Cc3ccccc3)n2)cc1,0.7,-12,x,1,4,13,x
Cc1ccc(S(=O)(=O)N2CCN(C(=O)CN3CCN(C)CC3)C2)cc1,-0.2,2,6033,-3,-4,6,-19
CC[N+](C)(CC)CCCCOc1ccc2c(c1)C(=O)c1cc(OCCCC[N+](C)(CC)CC)ccc1-2,0.9,-13,3947,x,x,59,-20
O=C(N/N=C/c1cccc(OCc2ccccc2)c1)c1ccc(Br)o1,x,2,6582,x,x,x,0
CC(=O)c1cnc2c(-c3ccccc3)c(C(F)(F)F)nn2c1C,12,3,3402,9,15,10,1
COC(=O)[C@H](C)NC(=O)Nc1ccc(OC)c(OC)c1,-14,9,2828,11,8,-4,-9
COC(=O)C1=CN(Cc2ccc(OC)c(OC)c2)C=C(C(=O)OC)C1c1ccc(O)cc1,-4.0,12,3470,-3,-2,-3,-3
O=C1/C(=C/c2cccs2)SC(=S)N1N1CCOCC1,2.3,-5,4555,13,0,47,-8
O=C(COc1ccccc1F)NNC(=O)c1ccc2c(=O)n3c(nc2c1)CCC3,1.4,-9,5801,-1,-3,4,-4
COc1ccccc1/C=C/C=NNc1cccc(C(=O)O)c1,8.5,x,x,17,-1,-1,x
CCOC(=O)N1CCN(S(=O)(=O)c2ccc(C(=O)Nc3nc4ccccc4s3)cc2)CC1,6.0,-5,11060,1,0,12,-11
C=CCN(C(=O)Cc1cccs1)c1nc(-c2ccc(S(C)(=O)=O)cc2)cs1,1.2,-11,5598,18,5,2,-32
Fc1cccc(CN2CCCCCCC2)c1,4.2,13,11268,2,9,-3,x
C/C(=N/NS(=O)(=O)c1cc(C)ccc1C)c1c[nH]c2ccccc12,x,3,5767,x,x,x,7
CC(C)C(=O)Nc1ccc(NC(=O)c2ccc([N+](=O)[O-])cc2Cl)cc1,5.3,10,2159,-2,2,4,-20
Cc1cccc(C)c1NC(=S)N(CCCN1CCOCC1)Cc1cccnc1,1.0,5,3976,0,1,12,-8
CN(C(=O)Cn1nc(C(=O)O)c2ccccc2c1=O)c1ccccc1,-1.5,3,6040,-10,-5,2,5
Cn1nccc1NC(=O)CC(CC(=O)O)c1ccccc1 (stereo unspecified),4.1,8,5365,3,-2,5,-23
Cc1onc(-c2ccccc2)c1C(=O)N1CCCC(C(F)(F)F)C1 (stereo unspecified),-1.2,1,5340,-2,7,-8,-15
COc1ccc(CCn2c(N)cc(=O)[nH]c2=S)cc1OC,-3.7,x,4372,x,x,0,-6
COc1cc(C(C)=NNC(=S)NC(C)C)cc(OC)c1OC,1.5,x,x,5,3,5,x
CC(Sc1nc2ccccc2c(=O)n1CC1CCCO1)C(=O)N(C)c1ccccc1 (stereo unspecified),-2.8,x,4235,6,-7,5,-20
COc1ccc(CCNC(=O)c2coc(=O)c(Br)c2)cc1,0.1,8,x,6,-10,4,x
COC(=O)C1C(c2cccc(C(F)(F)F)c2)NC(=O)N(Cc2ccccc2)C1C (stereo unspecified),4.7&4.8,x,x,15&11,13&9,2&-9,x
O=C(Cc1c(Cl)cccc1Cl)OCC(=O)N1CCc2ccccc2C1,3.6,0,2462,10,9,4,-27
CC(C)C(=O)Nc1nc2c(c(=O)[nH]1)CCCC2,5.5,6,4210,3,5,9,-12
CC(=O)NC1=NN(C(C)=O)C(C)(CS(=O)(=O)c2ccc(C)c(C)c2)S1 (stereo unspecified),8.5,1,12393,3,6,6,-25
CC(C)n1cc(CN2CCCC(C(=O)Nc3ccccc3Oc3cccnc3)C2)cn1 (stereo unspecified),x,16,5941,x,x,x,2

# Following part:
SMILES,Sa RN4220 lethal,BJeLR viability,Bead autofluor,Mtb hypoxia inh,Mtb hypoxia inh growth,ugtP null kill,PrP 5UTR inh
Cc1c(Cl)cccc1NC(=O)C1=COCCO1,0.8,0,5854,5,0,5,-27
CC(C)NC(=O)C1(S(=O)(=O)c2ccccc2)CC=CC1,2.4,-12,3487,6,11,-1,-16
CC(Sc1nnc(C2CC2)n1C1CC1)C(=O)Nc1ccc(C(N)=O)cc1 (stereo unspecified),-3.2,x,2941,-1,4,-3,-9
O=C(COC(=O)c1cc(Cl)ccc1O)c1ccc2c(c1)OCO2,7.9,13,u,-1,9,7,-48
COCC(=O)N1CCCC(CNS(=O)(=O)c2ccc(OC)cc2)C1 (stereo unspecified),1.8,-4,4547,8,8,0,-27
COc1ccc(S(=O)(=O)NCc2nc3nc(C)cc(C)n3n2)cc1,3.0,x,5460,-5,6,2,-23
Cc1nc2c(C(=O)N3CCN(c4ccccn4)CC3)cnn2c(C)c1Cc1cccc(Cl)c1,4.9,1,15278,10,3,9,-16
COc1ccc(/C=N/NC(=O)C2COc3ccccc3O2)cc1OC (stereo unspecified),x,0,4113,x,x,x,-23
O=C(COC(=O)c1cccc2ccccc12)NCCCc1ccccc1,-4.7,-3,2497,-5,-1,14,-22
COc1ccc(C(F)(F)F)cc1NC(=O)c1nc2nc(C)cc(C(F)F)n2n1,0.6,-3,5135,x,x,-8,-20
CCOC(=O)c1ccc(-c2n[nH]c(=O)c3ccccc23)cc1,4.4,-12,5718,0,6,0,-15
C=CCn1c(O)c(C(CC)=Nc2ccc(N(C)C)cc2)c(=O)[nH]c1=O,-0.5,3,4262,1,-1,0,-32
Cc1c(Cl)cccc1NC(=O)C1CCCCC1,2.7,5,x,13,2,4,x
Cc1cccn2c(=O)nc(SCC(=O)NCc3ccccc3Cl)nc12,1.5,5,6370,0,1,0,-11
COC(=O)Cc1c(C)c2ccc(OC3CCCCC3=O)cc2oc1=O (stereo unspecified),4.4,9,3433,4,6,2,-20
COC(=O)CSc1ccc2nnc(-c3ccc(F)cc3)n2n1,3.6,13,15156,1,1,3,-12
CCCNC(=O)N1C2CCC1C(C(=O)OC)=C(c1c(C)noc1C)C2 (stereo unspecified),6.0,x,x,5,5,-5,x
COc1ccc(CCN(C)C(=O)/C=C/c2c(Cl)nc3ccccn23)cc1OC,0.5,-9,4415,-3,2,5,-6
CC(=NNC(=O)C1CC1c1ccccc1)c1cccs1 (stereo unspecified),5.1,x,x,12,9,3,x
COc1ccc(CCNC(=O)c2nn(C)c3c2CS(=O)(=O)c2ccccc2-3)cc1OC,2.3,-3,5490,5,2,4,-9
NC(=O)c1ccsc1NC(=O)COC(=O)C1CC2CCCC(C1)C2=O (stereo unspecified),2.0,6,6204,-7,-5,-9,-21
COc1ccc(CCNCc2ccc(F)cc2)cc1OC,1.8,2,3656,x,x,9,-17
COc1ccc(C(C(=O)NCc2ccc(F)cc2)N(C(=O)c2csnn2)C2CC2)cc1 (stereo unspecified),-1.0,1,3382,0,4,12,-12
Cc1c(C(=O)N2CCN(c3ccccn3)CC2)oc2ccccc12,-1.6,4,22383*,11,-4,16,0
C/C(=C\c1ccccc1)CN1CCN(Cc2ccc(C)o2)C(CCO)C1 (stereo unspecified),2.0,2,3238,5,-3,3,-2
C/C(C=NN1CCN(Cc2ccc(C)cc2)CC1)=C/c1ccccc1,-2.7,x,x,-5,-4,14,x
Cc1cc(=O)oc(C)c1C(=O)N1CCCCC1,7.5,13,2809,7,9,9,6
